MT1-MMP act inh: MT1-MMP (human) activation inhibition; P50281; HT1080 RFP-PRO-GFP cells, GFP/RFP ratio fluorescence, overnight; percent of plate control window, DMSO zero; GFP/RFP ratio change, % at 20 µM; 360,000 tested, 0.061% active; AID 651647;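 active = GFP/RFP ratio change of at least 30% with cell ATP level not reduced by more than half and red fluorescence within 50% of control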; note: strong numbers were not always called active
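Material: RFP-PRO-GFP reporter HT1080 cells. Dosing: single-point 20 µM compound, 1% DMSO. Controls: DMSO and RFP-L50D-GFP cell wells. Timing: cells overnight before dosing, compound overnight, 37 °C, 5% CO2. Measure: GFP/RFP fluorescence ratio.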
HIV Env fusion: HIV envelope-mediated fusion inhibition | inhibition, % at 12.3 µM | HeLa-JRFL Env/CEM21 cell fusion, luciferase | 360,000 tested, 1.1% active;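 active = mean replicate inhibition score of at least 50 and every replicate individually at or above 50; inconclusive = only one of the two criteria met; inactive = mean below 50 and not all replicates reaching 50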;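 note: 0% = plate neutral controls and 100% = maraviroc near 300 nM; one replicate is shown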
MT1-MMP act inh RFP: also measured in MT1-MMP act inh; calls as there; RFP signal change, %; measured here: RFP expression control read;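 0 = vehicle wells; hits needed this value within 50% of zero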
The depositor's hits bear a star; i = inactive; ? = inconclusive; [ ] = remark or other dose. Not all compounds are listed; the hit share may differ from the screen's.

HIV Env fusion,MT1-MMP act inh RFP,MT1-MMP act inh,molecule
-15,10,2,CC(C)C[C@H]1CN([C@@H](Cc2ccc(O)cc2)CN2CCC[C@H]2CN2C(=O)C(=O)NC[C@@H]2Cc2ccccc2)C(=O)C(=O)N1CC1CCCCCC1
91*,-18,-29,OCC1OC(n2ccc3c(NO)ncnc32)C(O)C1O (stereo not given)
-6,4,5,O=C(CCN1C(=O)c2ccccc2C1=O)c1cnc[nH]1
11,-5,-6,CC(C)(C)NC(=O)C(C1CC1)n1c(=O)c(-c2cc3ccccc3[nH]2)nc2ccccc21 (stereo not given)
?,-24,-7,CCCCCc1c(-c2cccc(F)c2)ncn1CCc1ccccc1OC
11,2,2,Cc1cc(C)n2c(Nc3ccc4c(c3)OCCO4)c(CC(C)C)nc2n1
-32,-10,4,CCC(=Cc1ccccc1OC)c1ccncc1
-8,-10,2,COc1ccc([N+](=O)[O-])cc1NCC(=O)Nc1cccc(S(=O)(=O)N2CCCC2)c1
-29,11,4,COc1cc(NCCCCCCN)c2ncccc2c1OC
40,4,-3,COc1ccc(NC(C)=O)c([N+](=O)[O-])c1[N+](=O)[O-]
-4,5,0,Cc1nn(-c2ccccc2)c(Cl)c1/C=C(/CC(=O)O)c1nc2ccccc2s1
-7,3,-2,CC1(C(=O)NS(=O)(=O)C2CC2)CCN(C(=O)c2ccc(F)cc2Cl)C1 (stereo not given)
-24,-5,-2,CCOC(=O)[C@]12CCC=C1N(Cc1ccc(Cl)cc1Cl)C(=O)[C@H](CC(=O)N1CCSCC1)C2
-3,-12,4,O=C1c2c(-c3ccc(Br)cc3)noc2CCN1Cc1cn(-c2ccccc2)nn1
11,2,-6,O=C1OC=NC1=Cc1ccccc1
-20,-7,0,CCCCOCCCNC(=O)C[C@@H]1C[C@@]2(C(=O)OCC)CCC=C2N(Cc2cccc3ccccc23)C1=O
39,3,-3,CC(C)C[C@H]1CNC(=O)C(=O)N1C[C@@H]1CCCN1C[C@H](CC(C)C)N1C[C@H](Cc2ccc(O)cc2)N(CCc2ccccc2)C(=O)C1=O
-19,4,-3,O=C1CSC(=S)N1N=Cc1ccc(Cl)cc1Cl
-32,6,3,O=C(O)C(=Cc1ccccc1[N+](=O)[O-])c1ccc2c(c1)OCO2
12,0,1,COc1ccc(NC(=O)C(C2CC2)n2c(=O)c(-c3cc4ccccc4[nH]3)nc3ccccc32)cc1 (stereo not given)
21,3,0,CC(C)(C)OC(=O)N1CCC[C@H]1C(=O)NCc1ccc(F)cc1F
-14,2,1,COc1cccc(CNC(=O)[C@@H]2CCCN2)c1
14,-15,11,Nc1ccc(CNC(=O)c2cc3cc(Cl)ccc3nc2N)cc1
14,2,3,COc1ccc(Cn2cc(CN3CC(N4CCN(CCN(C)C)CC4)CS3(=O)=O)nn2)cc1 (stereo not given)
5,0,-2,O=Cc1ccc(-c2c(-c3ccccc3)oc3c2C(OCCCCO)CCC3)o1 (stereo not given)
-3,7,2,O=c1cc(CCc2ccccc2)[nH]c(=O)[nH]1
7,1,0,COCCNc1ncnc2c1ncn2[C@H]1CN(CCN2CCOCC2)C[C@@H](CO)O1
0,-4,-4,COc1ccc2nc(NC(=O)C3CC(=O)N(c4ccc5c(c4)OCCO5)C3)sc2c1 (stereo not given)
7,5,-7,CC(C)(C)NC(=O)C(c1ccc(C#N)cc1)n1c(=O)c(-c2ccco2)nc2ccccc21 (stereo not given)
3,1,0,Cc1ccccc1C(=O)NCCN1CCC(n2c(=O)[nH]c3ccccc32)CC1
-7,-18,2,CCCCC[C@H]1CCCCC[C@H](O)C[C@H](O)[C@@H](O)/C=C/C(=O)O1
3,7,4,COC(=O)C[C@@H]1CC[C@H](NC(=O)c2cnccn2)[C@@H](CO)O1
-190,4,1,COc1ncc(-c2ccc(N3C(c4ccc([N+](=O)[O-])cc4)=Cc4ccccc4C3CC(C)=O)cc2)cn1 (stereo not given)
-14,1,1,Cc1nnc(SCC(=O)N2CCN(c3ccccc3F)CC2)n1C1CC1
26,-4,-3,CC(C)C[C@@H](COCc1ccc([N+](=O)[O-])cc1)N1CCN(C(=O)c2ccc(C(F)(F)F)cc2)CCC1=O
14,6,4,Clc1ccc(N(CC2CO2)CC2CO2)cc1 (stereo not given)
-11,4,1,N#Cc1c(C#N)c(SSc2c(C#N)c(C#N)c(N)n2-c2ccccc2)n(-c2ccccc2)c1N
2,-15,-2,COC(=O)C1=CN(c2cccc(OCc3ccccc3)c2)C(N)=C(C#N)C1c1ccccc1 (stereo not given)
-56,-7,1,Nc1[nH]c(C(=O)c2ccccc2)c(-c2cccnc2)c1C(=O)NCCc1ccc(Cl)cc1Cl
2,2,-2,COc1cccc(CNC(=O)COC(=O)CCS(=O)(=O)c2ccc(C)cc2)c1
9,0,-3,COCCN(CC(=O)Nc1cccc(C)c1C)C(=O)c1ccc2c(c1)OCO2
-4,-2,-13,CCN(CC(=O)Nc1ccccc1C(=O)NC1CC1)Cc1cccs1
-9,2,-3,CC(NC(=O)c1ccccc1Cl)C(=O)Nc1ccc2c(c1)OCO2 (stereo not given)
-6,-22,-11,COC(=O)[C@@]1(Cc2ccc(F)cc2)[C@H]2c3cc(C(=O)N(C)C)n(Cc4ccsc4Br)c3C[C@H]2CN1C(=O)c1ccccc1
-2,9,5,Nc1nc2cc(Cl)ccc2n1N
-1,2,5,CN(Cc1ccccc1)C(=O)[C@@H]1CCCN1C(=O)[C@@H]1CCCN1C(=O)c1c(F)cccc1F
4,6,4,CC(C)C[C@@H]1COc2cc(N3CCC[C@H]3CO)ccc2S(=O)(=O)N1
-18[16.7 µM],-1,0,CC(=O)N1Cc2cc(C(=O)NCC(F)(F)F)nc(-c3cccc(-c4cc5ccccc5o4)c3)c2[C@H]1CCO
9,8,8,CC1(c2nc3ccccc3[nH]2)c2ccccc2C(=O)N1Cc1ccccc1 (stereo not given)
-4,-9,-19,CN1N=C(N)c2cn(C3OC(COP(=O)(O)O)C(O)C3O)c3ncnc1c23 (stereo not given)

Single values from the results shown:
CCN(CC(=O)Nc1ccccc1C(=O)NC1CC1)Cc1cccs1 in MT1-MMP act inh RFP is entered as -2
COCCNc1ncnc2c1ncn2[C@H]1CN(CCN2CCOCC2)C[C@@H](CO)O1 in MT1-MMP act inh is entered as 0
CC(NC(=O)c1ccccc1Cl)C(=O)Nc1ccc2c(c1)OCO2 (stereo not given) in MT1-MMP act inh is entered as -3
COC(=O)C[C@@H]1CC[C@H](NC(=O)c2cnccn2)[C@@H](CO)O1 in MT1-MMP act inh is entered as 4
COc1ccc2nc(NC(=O)C3CC(=O)N(c4ccc5c(c4)OCCO5)C3)sc2c1 (stereo not given) in MT1-MMP act inh is entered as -4
COC(=O)[C@@]1(Cc2ccc(F)cc2)[C@H]2c3cc(C(=O)N(C)C)n(Cc4ccsc4Br)c3C[C@H]2CN1C(=O)c1ccccc1 in MT1-MMP act inh RFP is entered as -22
CN1N=C(N)c2cn(C3OC(COP(=O)(O)O)C(O)C3O)c3ncnc1c23 (stereo not given) in MT1-MMP act inh RFP is entered as -9

Entries of single compounds, quoted from the list.
O=C(O)C(=Cc1ccccc1[N+](=O)[O-])c1ccc2c(c1)OCO2 is listed as HIV Env fusion = -32; MT1-MMP act inh RFP = 6; MT1-MMP act inh = 3
CC(NC(=O)c1ccccc1Cl)C(=O)Nc1ccc2c(c1)OCO2 (stereo not given) is listed as HIV Env fusion = -9; MT1-MMP act inh RFP = 2; MT1-MMP act inh = -3
CC1(c2nc3ccccc3[nH]2)c2ccccc2C(=O)N1Cc1ccccc1 (stereo not given) is listed as HIV Env fusion = 9; MT1-MMP act inh RFP = 8; MT1-MMP act inh = 8

Later entries
HIV Env fusion,MT1-MMP act inh RFP,MT1-MMP act inh,molecule
-2,-2,-6,O=P(Nc1ccccc1)(Nc1ccccc1)c1ccccc1
-8,2,5,O=C(NCCN1CCC(n2c(=O)[nH]c3ccccc32)CC1)c1c(F)cccc1F
-40,1,2,COC(=O)[C@@]1(C(C)C)N=C(c2cc(OC)c(OC)c(OC)c2)[C@]2(O1)C(=O)N(C)c1ccc(Cl)cc12
-13,3,-4,CC1(CCc2ccccc2)NC(=O)NC1=O (stereo not given)
-20,0,5,O=S1(=O)CC(N2CCN(Cc3ccccc3F)CC2)CN1Cc1cn(Cc2ccc(F)cc2)nn1 (stereo not given)
12,3,1,OC1CNc2c(ccc3ccccc23)C1 (stereo not given)
3,-15,-1,O=C(COc1cccc(Br)c1)Nc1ccc(Cl)c(S(=O)(=O)N2CCOCC2)c1
-1,-1,-8,COC(=O)[C@]12CCCCC=C1N(Cc1ccc3c(c1)OCO3)C(=O)[C@H](CC(=O)N1CCSCC1)C2
-7,-17,-11,C=C1CC2(CC(c3ccccc3)OC(c3ccccc3)C2)OC1=O (stereo not given)
18,-14,-2,O=C(c1cccc(Cl)c1)N1CCC(=O)N([C@H](COCc2cccc(Cl)c2)Cc2ccccc2)CC1
1,0,7,CCN(CC(=O)Nc1ccccc1OC)Cc1csc(CC(=O)Nc2ccc(C)cc2)n1
15,-1,-1,COCC1CCN(C(=O)c2ccc3oc(CCc4ccccc4)nc3c2)C1 (stereo not given)
-13,7,5,CCCCNC(=O)C(NC(=O)c1cnc(C)cn1)C(=O)c1ccccc1 (stereo not given)
-85,-11,-4,CCOC(=O)[C@]12CCC=C1N(Cc1ccc(Cl)cc1Cl)C(=O)[C@H](CC(=O)NCc1ccccc1)C2
-69,-3,-1,CCCCn1nnnc1C(c1ccccc1)N1CCN(c2ccccc2)CC1 (stereo not given)
-56,0,4,CCOC(=O)[C@]12CCC=C1N(Cc1ccc3c(c1)OCO3)C(=O)[C@H](CC(=O)NCc1ccc(OC)c(OC)c1)C2
-1,2,3,COc1cc([N+](=O)[O-])ccc1NC(=O)CN1C(=O)NC2(CCCCC2C)C1=O (stereo not given)
-30,-5,5,O=C1NC[C@H](CCCCN2C[C@H](Cc3ccccc3)N(Cc3ccccc3)C(=O)C2=O)N(CCC2CCCCC2)C1=O
8,-7,9,COc1ccc(C(=O)Cn2c(C(C)=O)nc3ccccc32)cc1
15,-15,-5,COC(=O)c1ccc2nc(-c3cccc(Br)c3)c(Cc3cccc(F)c3)n2c1
-18,6,7,CC1(C(=O)NCc2ccccc2)CSCC(=O)N1CCCN1CCOCC1 (stereo not given)
-36,-4,-2,OC(Cc1cccnc1)(c1ccccc1)c1ccccc1
10,5,1,COc1cc(CCC(N)c2cccc(O)c2)cc(OC)c1OC (stereo not given)
-66,6,3,N#CCCCc1cn(-c2nc3ccccc3s2)nn1
-2,3,-4,CCOc1cc(N2CCOCC2)c(OCC)cc1NC(=O)CN1C(=O)NC2(CCCCC2C)C1=O (stereo not given)
?,-5,-3,COc1ccc(NC(=O)C(c2ccc(C(F)(F)F)cc2)n2c(=O)c(-c3ccco3)nc3ccccc32)cc1 (stereo not given)
-13,-5,4,Cc1cc(C)c(OCC(=O)OC(C)C(=O)NCc2ccccc2)c(C)c1 (stereo not given)
-1[16.7 µM],4,0,O=C(C[C@H]1C=C[C@@H](NC(=O)c2ccncc2)[C@@H](CO)O1)NCC1CC1
-45,-1,-2,CCOC(=O)[C@]12CCCC=C1N(Cc1ccco1)C(=O)[C@H](CC(=O)NCCc1ccccc1OC)C2
i,-31,6,O=C1/C(=C\c2ccccc2)CN(C(=O)CCN2CCCCC2)C/C1=C/c1ccccc1
33,-3,4,CCCCc1c(-c2ccccc2OC)ncn1C1CCCC1
17,-23,-9,CCCCc1c(-c2ccc(F)cc2F)ncn1CCc1ccccc1OC
-10,-7,0,CC(C)c1cc(C(=O)NCc2ccc(F)cc2)c(N)s1
1,2,4,CSc1ccc(CN2CCC(C)(Oc3cccc(C#N)c3)C2)cc1 (stereo not given)

Entries listed so far shown as hits in HIV Env fusion:
HIV Env fusion,MT1-MMP act inh RFP,MT1-MMP act inh,molecule
91*,-18,-29,OCC1OC(n2ccc3c(NO)ncnc32)C(O)C1O (stereo not given)

Shown as labelled records: entries from further up.
> CCOC(=O)[C@]12CCCC=C1N(Cc1ccco1)C(=O)[C@H](CC(=O)NCCc1ccccc1OC)C2
  HIV Env fusion: -45 | MT1-MMP act inh RFP: -1 | MT1-MMP act inh: -2
> O=C1/C(=C\c2ccccc2)CN(C(=O)CCN2CCCCC2)C/C1=C/c1ccccc1
  HIV Env fusion: i | MT1-MMP act inh RFP: -31 | MT1-MMP act inh: 6
